FGF22 binding = shifts melting point of recombinant human FGF22; recombinant FGF22 thermal shift, SYPRO orange fluorescence; percent of sucrose octasulfate shift, DMSO zero; calls only at 9.99 µM; 1.5% of 340,000 active;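 active means melting point raised past a set limit in the mean and every replicate; three in four hits are not shown here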
Target sequence (Q9HCT0 whole entry, looked up): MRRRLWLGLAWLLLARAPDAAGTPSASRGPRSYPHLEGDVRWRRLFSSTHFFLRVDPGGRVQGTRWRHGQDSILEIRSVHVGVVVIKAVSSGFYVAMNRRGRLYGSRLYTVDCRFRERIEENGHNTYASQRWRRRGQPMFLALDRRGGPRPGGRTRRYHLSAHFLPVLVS
HNF4A DNA FP = change in binding of human HNF4 alpha to DNA | P41235 | HNF4a-FITC DNA binding, fluorescence polarization, 1 h | 0.3% of 360,000 active | AID 1224865 | activity change, % at 10 µM; in the data active means activity change above about 30%, passing the limit was not always enough;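 further: controls were the assay level and a saturating level of protein; the project sought stronger binding though the title names inhibitors; some compounds called inactive have numbers as strong as hits; positive values seem to mean higher polarization but the record does not say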
ALR inh = human ALR oxidase inhibition via reduced H2O2; inhibition, % (no concentration beside the values); 3.8% of 290,000 active; purified ALR, DTT oxidation, H2O2 HRP-luminol luminescence; P55789;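 active means mean and each replicate at 75% or more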;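 further: stock transfer was 7.5 nL into about 7.5 µL; 0% = neutral wells and 100% = wells with inactivated enzyme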
LANA-H2B inh = blocks KSHV LANA binding to histone H2A/H2B; Q9QR71; cell-free LANA-H2A/H2B peptide, fluorescence polarization; inhibition, % (concentration not given with the values); 0.6% of 320,000 active; AID 2629; in the data active means inhibition mostly above about 10%, no sharp cut-off; inactive means mostly below about 6.7%;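 further: stock transfer was 7.5 nL into about 10 µL; 0% = median of vehicle wells and 100% = median of positive control wells; one replicate is shown; the record names a cut of 25% in any replicate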
Beta2AR agonist = human beta-2 adrenergic receptor agonism by FAP; P07550; Am2.2-beta2AR cells, FAP receptor internalization, flow cytometry; reference of the scale not given here; response, % (concentration not given with the values); 0.43% of 340,000 active;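 active means response above a set limit, near 3 SD of response in nonfluorescent compounds, cut at about 42% in these data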;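 further: stock transfer was 100 nL into about 11 µL; a reference agonist was the positive control; negative values mostly stem from fluorescent compounds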
Target sequence (P07550 whole entry, looked up): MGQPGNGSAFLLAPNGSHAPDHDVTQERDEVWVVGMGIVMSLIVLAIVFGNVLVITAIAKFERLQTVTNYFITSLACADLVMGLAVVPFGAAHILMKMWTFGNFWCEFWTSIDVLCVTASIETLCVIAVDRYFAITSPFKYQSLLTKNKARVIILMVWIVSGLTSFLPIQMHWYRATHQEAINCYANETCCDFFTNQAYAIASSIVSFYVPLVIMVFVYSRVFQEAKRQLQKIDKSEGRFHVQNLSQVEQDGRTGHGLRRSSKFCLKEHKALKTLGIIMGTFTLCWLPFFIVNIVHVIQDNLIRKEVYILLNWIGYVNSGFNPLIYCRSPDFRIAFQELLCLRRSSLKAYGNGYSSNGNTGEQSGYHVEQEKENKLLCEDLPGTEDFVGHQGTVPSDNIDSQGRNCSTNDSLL
UCH37 inh = human UCH37 deubiquitinating enzyme inhibition; Q9Y5K5; purified proteasome/UCH37, Ub-AMC cleavage fluorescence; inhibition, % (test concentration not listed); 0.33% of 330,000 active; AID 588478;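 active means mean of two replicates above 20%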;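 further: 0% = compound-free wells with enzyme and 100% = wells lacking proteasome; stock transfer was 100 nL into about 20 µL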
Target sequence (Q9Y5K5 whole entry, looked up): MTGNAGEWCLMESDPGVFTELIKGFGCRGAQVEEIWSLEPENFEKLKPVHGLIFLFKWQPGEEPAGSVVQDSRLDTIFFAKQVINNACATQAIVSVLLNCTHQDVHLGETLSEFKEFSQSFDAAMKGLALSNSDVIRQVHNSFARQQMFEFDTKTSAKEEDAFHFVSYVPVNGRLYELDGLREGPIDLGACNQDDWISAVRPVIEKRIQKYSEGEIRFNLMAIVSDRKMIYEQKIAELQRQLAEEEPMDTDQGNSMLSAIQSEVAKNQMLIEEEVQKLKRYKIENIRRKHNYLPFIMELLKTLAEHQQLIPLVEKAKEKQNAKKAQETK
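System: Proteasome-associated human UCH37 deubiquitinase; Input: 0.15 nM proteasome in added enzyme buffer; Also added: Ub-AMC substrate from 1 µM stock; Incubation: 30 min compound-proteasome preincubation then 25 min substrate reaction, room temperature; Detection: fluorescence, ex 355 nm, em 460 nm; Read-out: % inhibition of Ub-AMC cleavage fluorescence; Benchmarks: no-proteasome and no-compound wells.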
E coli growth = blocks Escherichia coli growth. 0.21% of 330,000 active. AID 1053175. OD600, 23 h; hits give low values. OD600 absorbance (test concentration not listed);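 active means OD600 absorbance below the run mean of sample wells minus 3.6 SD, in any replicate, cut at about 0.56 in these data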;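 further: stock transfer was 300 nL into about 60 µL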
* = called active by the depositor; i = inactive; . = not tested or not shown. These rows are one share of the data, so the mix of outcomes need not match the whole.

SMILES	FGF22 binding	HNF4A DNA FP	ALR inh	LANA-H2B inh	Beta2AR agonist	UCH37 inh	E coli growth
CC(C)Sc1nc(-c2ccccc2)cc(=O)[nH]1	.	5.2	-9	-3.7	0	0.6	0.69
Cc1ccc(NC(=O)CSc2nccc(=O)[nH]2)c(S(=O)(=O)N2CCOCC2)c1	.	-1.7	98*	2.2	4	1.0	0.7
Cc1sc2ncnc(OCC(=O)c3ccc(S(=O)(=O)N4CCCC4)cc3)c2c1C	.	-3.1	-3	3.9	5	2.4	0.73
CCOc1cc(C2CC(=O)NC3=C2C(=O)C(C(=O)OC)C(C)C3)cc(Br)c1O (centres undefined)	.	-3.3	16	2.1	1	0.3	0.78
CCOC(=O)N1CCC(NC(=O)CSCc2nc(-c3ccc(OC)cc3)oc2C)CC1	i	2.2	86*	-2.0	6	-2.0	0.69
CC(=O)Nc1cccc(/C(C)=N/NC(=O)c2ccc(CN3CCOCC3)cc2)c1	i	-7.5	-2	4.0	1	.	.
COc1ccc(Nc2nc(Cl)nc(N3CCN(c4ccc(OC)cc4)CC3)n2)cc1	i	.	-1	6.7	.	0.9	0.71
Cn1cncc1C(=O)c1ccccc1	i	-1.1	-25	1.7	-7	0.1	0.63
Nc1nc2ccccc2cc1S(=O)(=O)c1ccccc1	i	4.1	-10	0.2	2	.	.
COc1ccc(-c2nc(CN3CCCC(C(=O)NC4CCCC4)C3)c(C)o2)cc1 (centres undefined)	.	0.1	-15	-1.6	1	2.9	0.71
COc1cc(C2CC(=O)NC(SCC(=O)Nc3ccccc3C)=C2C#N)ccc1O (centres undefined)	.	2.4	18	-1.3	6	0.6	0.82
Cc1ccccc1Nc1cc(C(=O)NCC2CCCO2)c2ccccc2n1 (centres undefined)	i	1.0	-4	-6.3	-9	4.1	0.71

An excerpt from above, reduced to ALR inh, E coli growth and Beta2AR agonist:
SMILES | ALR inh | E coli growth | Beta2AR agonist
COc1ccc(-c2nc(CN3CCCC(C(=O)NC4CCCC4)C3)c(C)o2)cc1 (centres undefined) | -15 | 0.71 | 1
COc1cc(C2CC(=O)NC(SCC(=O)Nc3ccccc3C)=C2C#N)ccc1O (centres undefined) | 18 | 0.82 | 6
Cc1ccccc1Nc1cc(C(=O)NCC2CCCO2)c2ccccc2n1 (centres undefined) | -4 | 0.71 | -9

The list goes on:
SMILES	FGF22 binding	HNF4A DNA FP	ALR inh	LANA-H2B inh	Beta2AR agonist	UCH37 inh	E coli growth
CC1=Nc2ccccc2/C1=C\c1nc(-c2ccccc2)oc1O	.	28	1	-2.1	-87	4.6	0.69
CC1(C)CC2(CC(c3ccccc3F)c3cc(Cl)c(O)cc3O2)NC(=S)N1 (centres undefined)	i	-5.4	-6	7.2	-3	3.1	0.72
Cc1ccc(NC(=O)CN2C(=O)c3ccccc3C2=O)nc1	i	-1.9	4	7.8	-2	-1.3	0.68
c1ccc(-c2cnc(CN3CCN(c4ccccc4)CC3)o2)cc1	i	0.2	88*	1.6	-1	2.2	0.71
N#CCSc1nc(-c2ccccc2)c2cc(Cl)ccc2n1	.	-2.1	-12	-3.3	-12	-45	0.72
Cc1cc(N=Cc2c(O)ccc3ccccc23)no1	.	-2.9	-23	2.1	-2	3.9	0.72
COc1ccc(OC)c(C2NC(=O)NC(C)=C2C(=O)Nc2ccc(C)cc2)c1 (centres undefined)	.	-0.8	-1	-0.2	-2	-2.5	0.74
O=C(CN1C(=O)C2CCCCC2C1=O)N1CCN(c2ccc(F)cc2)CC1 (centres undefined)	i	3.6	25	-3.4	1	0.7	0.66
Cc1ccc(OCC(O)CN2CCN(c3ccccc3)CC2)cc1 (centres undefined)	.	0.4	-2	-3.1	10	2.5	0.67
O=C(NC(=S)NCc1ccccc1Cl)c1cccs1	i	2.0	3	-0.5	-16	4.7	0.66
COc1ccc(-n2c(C)nn(CCOc3ccccc3)c2=O)cc1	i	4.1	-18	0.0	-8	3.5	0.69
CCOC(=O)CSc1nnc(CNC(=O)c2ccc(S(=O)(=O)N(C)C)cc2)n1C	i	-1.1	-8	-3.7	-3	-1.5	0.7
N#C/C(=C\c1ccc(N2CCOCC2)o1)C(=O)NCCc1ccccc1	.	188	89*	-33	-7	9.9	.
C[C@H](NC(=O)C1CC(=O)N(c2ccc3c(c2)OCCO3)C1)C(=O)N1CCC(C(=O)O)CC1 (some centres undefined)	i	1.0	2	1.5	6	1.1	0.61
CC(=O)N1CC2(C)CN(C(C)=O)CC(C)(C1)C2	.	-0.4	-7	-1.2	-6	4.0	0.66
CC(C)(C)C(=O)CCN1C(=O)C2(OCCO2)c2ccccc21	.	-2.5	-3	0.6	0	0.1	0.74
CN1C(=O)CS/C1=N\NC(=O)COc1cccc2cccnc12	i	-1.8	-34	0.3	-1	.	.
O=C(COc1ccc(S(=O)(=O)N2CCOCC2)cc1)N1CCc2ccccc2C1	i	3.7	-9	-2.4	0	2.0	0.65
CC(C)NC(=O)CC(=O)N/N=C/c1cccs1	i	-2.2	-12	-1.9	13	.	.
COc1cccc(-c2cc(C(=O)Nc3c(C)n(C)n(-c4ccccc4)c3=O)no2)c1	.	-2.0	8	0.3	0	1.0	0.71
COc1ccc(-c2nn(-c3ccccc3)cc2C(=O)Nc2cccc(C(=O)O)c2)cc1[N+](=O)[O-]	.	0.8	43	-0.1	5	0.9	0.75
O=C(CN1C(=O)NC2(CCOc3ccccc32)C1=O)c1ccc(F)c(F)c1 (centres undefined)	i	2.5	-8	1.8	-5	0.3	0.68
Cc1ccc(CC2S/C(=N/N=C/c3ccco3)NC2=O)cc1 (centres undefined)	i	-3.8	49	1.8	0	.	.
O=C(/C=C/c1ccco1)c1ccc(NC(=O)C23CC4CC(CC(C4)C2)C3)cc1	i	1.1	.	-2.8	4	3.7	0.71
FC(F)(F)c1ccccc1NC(=S)NN=C1CCCCCC1	i	.	-13	-2.0	.	1.7	0.7
Cc1ccc(NC(=O)c2ccc(OC(=S)N3CCOCC3)cc2)cc1	.	-3.4	-7	2.8	5	3.5	0.72
N#Cc1c(NC(=O)C2CC=CCC2C(=O)O)sc2c1CCCCCC2 (centres undefined)	.	-1.9	.	2.1	0	6.3	0.67
Cc1ccnc(NC(=O)c2cc([N+](=O)[O-])cc([N+](=O)[O-])c2)c1	i	-3.9	-18	-1.2	2	2.3	0.72
O=C(NC1CCSc2ccccc21)c1ccccc1Cl (centres undefined)	i	3.5	-3	5.0	3	6.0	0.66
CCCOC(=S)N/C(=N\S(=O)(=O)c1ccccc1)c1ccccc1	.	-1.5	6	-1.8	-1	.	.
COC(=O)C(/C=N/O)NC(=O)c1ccccc1 (centres undefined)	i	-1.1	11	0.6	3	.	.
O=C(NCC1CCCO1)C1C2C=CC3(CN(Cc4cccs4)C(=O)C13)O2 (centres undefined)	.	1.5	-13	0.5	5	1.9	0.78
Cc1ccc(/C=N/NC(=O)CNC(=O)c2ccc(S(=O)(=O)N(C)C)cc2)cc1	i	0.6	0	-0.4	-1	.	.
O=C(O)c1cc(N=Nc2c(O)[nH]c3ccc([N+](=O)[O-])cc23)ccc1Cl	i	4.5	.	-1.4	3	14	0.63
COCCNS(=O)(=O)c1ccc(SC)cc1	i	1.8	-7	-10	37	-2.6	0.68
O=C(NCCS(=O)(=O)N1CCN(c2ccccc2F)CC1)c1cccs1	i	-1.1	-1	6.4	-2	-0.9	0.68
COc1cc(/C=N/NC(=O)c2cccc([N+](=O)[O-])c2)ccc1OCc1ccc(C)cc1	.	-5.9	-8	1.5	2	.	.
CC(=O)N1c2ccc(S(=O)(=O)N(C)CC(=O)NC(C)c3ccccc3)cc2CC1C (centres undefined)	i	-1.3	-6	-0.6	-5	0.0	0.61
NC(=O)c1ccsc1NC(=O)CN1C(=O)NC2(CCCC2)C1=O	i	4.7	15	-5.7	2	3.4	0.72
O=c1[nH]c(NCc2ccccc2)nc2c1CCCC2	.	-0.1	-6	3.2	15	-2.4	0.59
NC(=O)C1=CC2C3C=CC2(O)C(=O)OC3O1 (centres undefined)	i	1.0	.	.	-3	.	.
CCOc1ccc(NC(=O)CCC(=O)N2CCSc3ccccc32)cc1	i	0.2	12	-4.1	-11	1.4	0.74
COc1ccc(CC(=O)Nc2sc3c(c2C#N)CC(C)(C)NC3(C)C)cc1OC	i	5.1	.	-1.2	-4	0.0	0.65
c1ccc(-c2csc(Nc3ncccn3)n2)cc1	.	3.0	-7	2.0	0	1.7	0.73
CCOc1ccc(NC(=O)CN(C)C(=O)CCCn2c(=O)oc3ccccc32)cc1OCC	i	1.1	-9	-0.5	4	-0.9	0.71
CCN1CCN(Cc2c(O)ccc3c(C)cc(=O)oc23)CC1	i	0.2	2	-0.4	-3	i	0.66
CC(=O)c1ccc(C(=O)Nc2nnc(-c3ccc(Cl)cc3)o2)cc1	i	-0.4	-1	0.0	-11	6.5	0.67
CC(C)=CC(=O)Nc1nnc(-c2ccccc2C)s1	i	-4.0	-15	-2.5	-4	-4.0	0.73

Entries shown so far containing a COOH group (4):
SMILES	FGF22 binding	HNF4A DNA FP	ALR inh	LANA-H2B inh	Beta2AR agonist	UCH37 inh	E coli growth
C[C@H](NC(=O)C1CC(=O)N(c2ccc3c(c2)OCCO3)C1)C(=O)N1CCC(C(=O)O)CC1 (some centres undefined)	i	1.0	2	1.5	6	1.1	0.61
COc1ccc(-c2nn(-c3ccccc3)cc2C(=O)Nc2cccc(C(=O)O)c2)cc1[N+](=O)[O-]	.	0.8	43	-0.1	5	0.9	0.75
N#Cc1c(NC(=O)C2CC=CCC2C(=O)O)sc2c1CCCCCC2 (centres undefined)	.	-1.9	.	2.1	0	6.3	0.67
O=C(O)c1cc(N=Nc2c(O)[nH]c3ccc([N+](=O)[O-])cc23)ccc1Cl	i	4.5	.	-1.4	3	14	0.63

The results go on:
SMILES	FGF22 binding	HNF4A DNA FP	ALR inh	LANA-H2B inh	Beta2AR agonist	UCH37 inh	E coli growth
CCOc1ccccc1NC(=O)C1CCCN(S(=O)(=O)c2ccc(-n3cnnn3)cc2)C1 (centres undefined)	i	2.7	-7	-2.2	1	-0.7	0.65
COc1ccccc1N1CCN(C(=O)c2cc(-c3ccco3)on2)CC1	i	-3.0	12	1.8	1	6.3	0.71
CN1CCN(C(=O)/C(=C/c2cccnc2)NC(=O)c2cccc(Br)c2)CC1	i	-0.6	.	-5.3	2	2.2	0.65
COc1cccc(CN2CCNC(=O)C2CC(=O)NCc2cc(C(C)C)no2)c1 (centres undefined)	i	0.4	1	2.0	2	-0.9	0.65
COCCCn1c(SCc2nc3ccccc3c(=O)[nH]2)nc2ccccc2c1=O	.	1.1	-3	-1.8	6	0.4	0.75
Cc1c(NC(=O)CN2C(=O)C(=O)N(Cc3ccccc3)C2=O)c(=O)n(-c2ccccc2)n1C	i	4.9	-7	-1.1	-8	-3.3	0.65
COc1ccccc1CNC(=O)c1cn(C)c(=O)c2cc(OC)c(OC)cc12	.	2.4	0	-0.2	2	1.0	0.69
Cc1ccc(N(C(=O)C2CCC(=O)N2)C2(C(=O)NC3CCCCC3)CCCCC2)cc1 (centres undefined)	.	-0.4	-2	-16	-3	4.6	0.7
CCOC(=O)c1nnn(-c2ccc([N+](=O)[O-])cc2)c1C	i	-1.9	-2	-2.5	16	-0.4	0.66
O=C(c1ccc(F)cc1)N1CCCCC(Sc2nnc3ccccn23)C1=O (centres undefined)	i	0.5	44	2.3	-13	0.0	0.71
COC(=O)c1ccc(CN2C(=O)NC(c3ccccc3)(c3ccccc3)C2=O)o1	i	-2.0	-5	3.5	1	1.6	0.69
Cc1ccnc(NCc2cccc3ccccc23)c1	i	0.2	-1	-0.9	-5	-0.2	0.57
O=C(Nc1ccc(NC(=O)c2ccccc2F)cc1)c1cccs1	i	4.4	-3	.	0	-7.3	0.67
CCCC(=O)Nc1nc(-c2ccccc2)ns1	.	-1.4	.	.	-4	2.5	0.63
COc1cc(C(=O)N/N=C/C2CC=CCC2)cc(OC)c1OC (centres undefined)	.	-5.2	17	-2.5	-5	.	.
COc1ccc(-c2csc3ncn(CC(=O)N4CCOCC4)c(=O)c23)cc1	.	-1.5	-11	16*	-1	.	.
O=C(O)/C=C/C(=O)c1ccc2c(c1)CCc1ccccc1-2	i	0.1	59	-6.1	96*	0.1	.
CCc1ccccc1NC(=O)CSc1nnc(CNC(=O)c2ccco2)n1C	i	0.8	-6	1.1	-2	4.1	0.68
